Source: PubChem BioAssay
KCNQ2 inh – KCNQ2 potassium channel inhibitors, primary screen, cell-based, CHO-K1, FluxOR thallium flux, B-score (AID 2156); Potassium voltage-gated channel subfamily KQT member 2 (Rattus norvegicus), O88943; 20 min; active compounds read low; only compounds with negative scores are shown here; some inactives read as strong as hits; B-score at 10 µM; 310,000 compounds, 1.1% hits;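 active = fluorescence ratio B-score at most minus 3 library SDs, with starting brightness B-score within 2 library SDs, cut at about -5.5 in these data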
Target sequence (O88943 whole entry, looked up): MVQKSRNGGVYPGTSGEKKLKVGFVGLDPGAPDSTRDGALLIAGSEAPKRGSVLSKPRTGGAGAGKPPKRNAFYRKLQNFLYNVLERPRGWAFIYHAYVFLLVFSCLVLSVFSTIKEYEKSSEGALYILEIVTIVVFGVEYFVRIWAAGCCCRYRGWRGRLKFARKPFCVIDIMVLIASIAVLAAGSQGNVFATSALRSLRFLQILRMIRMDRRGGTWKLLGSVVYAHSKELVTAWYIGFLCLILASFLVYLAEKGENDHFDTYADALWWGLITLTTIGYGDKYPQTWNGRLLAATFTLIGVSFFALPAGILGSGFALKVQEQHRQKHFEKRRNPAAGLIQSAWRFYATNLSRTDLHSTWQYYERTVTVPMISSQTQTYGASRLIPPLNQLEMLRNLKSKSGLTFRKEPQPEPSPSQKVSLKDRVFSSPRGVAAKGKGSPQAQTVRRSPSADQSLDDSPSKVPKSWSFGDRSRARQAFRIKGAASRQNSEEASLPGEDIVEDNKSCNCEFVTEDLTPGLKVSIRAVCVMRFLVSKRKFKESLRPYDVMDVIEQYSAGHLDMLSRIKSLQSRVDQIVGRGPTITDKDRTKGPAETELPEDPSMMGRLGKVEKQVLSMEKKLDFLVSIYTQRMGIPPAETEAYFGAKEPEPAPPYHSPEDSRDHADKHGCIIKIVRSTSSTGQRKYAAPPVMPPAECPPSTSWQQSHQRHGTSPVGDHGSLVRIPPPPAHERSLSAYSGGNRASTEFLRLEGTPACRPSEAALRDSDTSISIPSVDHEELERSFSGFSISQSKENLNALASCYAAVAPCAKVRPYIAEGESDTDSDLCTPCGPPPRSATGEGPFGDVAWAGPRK
KCNQ2 inh baseline – second read-out of KCNQ2 inh, no call of its own (marks repeat the call); B-score; measured here: initial fluorescence intensity artifact check;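 brightness before thallium and not channel activity; 0 = typical well and far values either way flag optical interference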
Numbers without * were called inactive; i = inactive.

SMILES | KCNQ2 inh | KCNQ2 inh baseline
CSCC(=O)N1CCc2ccc(NC(=O)c3ccccc3Cl)cc2C1 | i | -0.59
COc1cccc2c(=O)cn[nH]c12 | i | -0.29
O=C(Cc1n[nH]c(=O)c2ccccc12)OCC(=O)c1ccccc1Cl | i | 1.28
Cc1cc(C)cc(NC(=O)C(Sc2ncnc3ccccc23)c2ccccc2)c1 (configuration not stated) | i | -0.22
CN1C(=O)/C(=C\C=C2/CCCN2C)N(C)C1=S | i | 1.71
COc1ccc(-c2cn[nH]c2-c2ccc(OCc3ccc([N+](=O)[O-])cc3)cc2O)cc1 | i | -1.18
FC(F)(F)c1cccc(NC(=S)NNC(=S)NCc2ccccc2)c1 | i | -0.1
COc1ccccc1-c1cc(C(=O)NC(C)C)no1 | i | 0.23
CCOC(=O)C1=C(C)Nc2ccccc2N=C1NC(=O)c1cccc(S(=O)(=O)NCc2ccccc2)c1 | i | 1.32
O=C(Cn1c2ccc(F)cc2c2nc3n(c(=O)c21)CCS3)Nc1ccccc1C(F)(F)F | i | -0.07
CCCN1CCN(c2ccc(S(N)(=O)=O)cc2[N+](=O)[O-])CC1 | i | -1.27
CC(C)(C)c1ccc(OCc2ccc(C(=O)N/N=C/c3ccc([N+](=O)[O-])cc3)o2)cc1 | i | -0.74
Clc1ccc(-c2cc3ccccc3nc2N2CCOCC2)cc1 | i | 0.08
O=S(=O)(NCC(c1cccnc1)N1CCN(Cc2ccccc2)CC1)c1ccc(F)cc1 (configuration not stated) | i | 1.42
Cn1c(SCC(=O)O)nnc1-c1ccc2ncccc2c1 | i | -0.66
O=[N+]([O-])c1cc(C(F)(F)F)ccc1N1CCCNCC1 | i | 0.64
CN(CC(=O)Nc1ccc(Cl)c(C(F)(F)F)c1)C(=O)c1cccnc1Sc1ccccc1 | i | -1.22
N/C(=N\c1nc2c(c(=O)[nH]1)CCCC2)Nc1ccc(Oc2ccccc2)cc1 | i | 0.34
COc1ccc(C)cc1NC(=O)CNc1ccccc1CN(C)C1CCCCC1 | i | 0.62
COc1ccc(-n2nc3c(c2NC(=O)c2ccc(N4C(=O)CCC4=O)cc2)CSC3)cc1 | i | 2.93
CC(=O)Nc1ccc(C(=O)Nc2ccc(S(=O)(=O)Nc3nccc(C)n3)cc2)cc1 | i | 0.06
Brc1cccc(CNn2cnnc2)c1 | i | 0.67
CCOC(=O)C1=C(CS(=O)(=O)c2ccccc2)NC(=O)NC1c1ccccc1 (configuration not stated) | i | -0.45
Cc1cc(C(=O)O)c(S(C)(=O)=O)s1 | i | 0.82
CC(C)(C)c1ccc(OCC(=O)NCc2ccco2)cc1 | i | 0.04

For convenience, six of the compounds above.
SMILES | KCNQ2 inh | KCNQ2 inh baseline
COc1ccc(-n2nc3c(c2NC(=O)c2ccc(N4C(=O)CCC4=O)cc2)CSC3)cc1 | i | 2.93
CC(=O)Nc1ccc(C(=O)Nc2ccc(S(=O)(=O)Nc3nccc(C)n3)cc2)cc1 | i | 0.06
Brc1cccc(CNn2cnnc2)c1 | i | 0.67
CCOC(=O)C1=C(CS(=O)(=O)c2ccccc2)NC(=O)NC1c1ccccc1 (configuration not stated) | i | -0.45
Cc1cc(C(=O)O)c(S(C)(=O)=O)s1 | i | 0.82
CC(C)(C)c1ccc(OCC(=O)NCc2ccco2)cc1 | i | 0.04

More compounds
SMILES | KCNQ2 inh | KCNQ2 inh baseline
C=CCOc1ccc(/C=C/C(=O)OCC(=O)N(C)C2CCS(=O)(=O)C2)cc1 (configuration not stated) | i | 4.02
CC(NC(=O)CNC(=O)c1ccco1)c1ccccc1 (configuration not stated) | i | 0.52
CCOC(=O)c1cn(CC)c2c(ccc3ccccc32)c1=O | i | -1.68
CCOC(=O)c1ccc(NC(=O)CC2C(=O)OCCN2CC)cc1 (configuration not stated) | i | -0.98
Cc1onc(-c2ccccc2)c1CNC(=O)Nc1cccc(Cl)c1 | i | -1.65
Cc1cc2c(cc1S(=O)(=O)C(C)CC(=O)NCc1ccco1)OCC(=O)N2 (configuration not stated) | i | 0.9
C/C(=N\NC(=O)c1nnn(-c2nonc2N)c1CSc1ccc(C)cc1)c1ccco1 | i | 0.97
CC(C)Cc1ccc(CN2CCCC(NC(=O)CCCN3CCCC3=O)C2)cc1 (configuration not stated) | i | -0.3
CN(C)S(=O)(=O)c1cccc(NC(=O)CCNC(=O)c2ccccc2Cl)c1 | i | 1.2
O=S(=O)(NCc1ccc2c(c1)OCO2)c1ccccc1F | i | 0.5
O=C(CSc1nnc(CNC(=O)c2ccccc2)o1)NCc1ccccc1 | i | -0.83
COc1ccc(C2(c3ccc(OC)cc3)NC(=O)N(CC(=O)Nc3ccc(OC)c(OC)c3)C2=O)cc1 | i | -0.02
CCC(C)Nc1nc(SC(C(C)=O)C(C)=O)nc(N(C)C)n1 (configuration not stated) | i | -0.63
COC(=O)C1(C)NC(c2ccc(O)cc2)C2C(=O)N(c3ccc(C)cc3)C(=O)C21 (configuration not stated) | i | 0.4
Cn1cc(S(=O)(=O)CC(=O)Nc2ccc3c(c2)OCCO3)c2ccccc21 | i | 0.09
COC(=O)c1ccc(O)c(Sc2cc(C(=O)OC)ccc2O)c1 | i | 0.05
COc1ccccc1Oc1ccc2c(c1)C(=O)N(c1ccc(Br)c3cccnc13)C2=O | i | -0.01
O=C(CSc1nc(Nc2ccccc2)nc(N2CCOCC2)n1)Nc1ccc2c(c1)OCCO2 | i | 0.89
CCOc1ccc(-n2c(SC(C)C)nc3c(c2=O)SCC3)cc1 | i | 0.85
CN(C)S(=O)(=O)c1ccc(C(=O)OCC(=O)Nc2ccccc2OC(F)F)cc1 | i | 1.03
CC(Oc1ccccc1)C(=O)N1CCC2(CC1)Oc1ccc(F)cc1C(=O)C21CC(c2ccc(Cl)cc2)=NO1 (configuration not stated) | i | -0.38
COc1ccc(C(=O)Oc2c(CN3CCOCC3)cc(Cl)c3cccnc23)cc1OC | i | -0.59
O=C(CSc1ccc(-c2nc3ccccc3[nH]2)cn1)N1CCN(C(=O)c2ccco2)CC1 | i | 0.82
Cc1cccc(-n2cc(CN3CCN(C(=O)c4ncn[nH]4)CC3)c(-c3cccc(F)c3)n2)c1 | -8.35* | 1.16*
C=CCNC(=S)NNC(=O)c1cccn(Cc2ccc(Cl)cc2)c1=O | i | -0.55
Continuation:
SMILES | KCNQ2 inh | KCNQ2 inh baseline
CC(C)OC(=O)/C(=C\c1cccc2ccccc12)NC(=O)c1ccccc1 | i | 0.17
CCOC(=O)CSc1nc2c(c(=O)n1-c1ccc(OC)cc1)SCC2 | i | 1.26
O=C(CCNS(=O)(=O)c1ccccc1C(F)(F)F)NNC(=O)C1COc2ccccc2O1 (configuration not stated) | i | 1.14
CC(C)NC(=S)Nc1ccc2nc3n(c(=O)c2c1)CCCCC3 | i | -0.09
COc1ccc(CCn2c(C(C)C)nc3oc4ccccc4c(=O)c3c2=O)cc1 | i | -0.48
COc1ccc(-c2ccc(=O)n(Cc3cc(=O)n4ccccc4n3)n2)cc1 | i | 0.34
Cc1c(/C=N/n2cnnc2)c2ccccc2n1CCOc1ccccc1 | i | -0.66
COc1cc(C(=O)NCC(=O)N/N=C/c2ccccn2)cc(OC)c1OC | i | 1.26
Cc1ccc(/C=N/NC(=O)c2n[nH]c3c2CCCC3)cc1 | i | 1.86
Cc1cc(C)n(C(=O)c2cc3sccc3[nH]2)n1 | i | 1.38
CC(=O)Nc1ccc(S(=O)(=O)N2CCCc3ccccc32)cc1 | i | 0.08
O=C(N/N=C/C=C/c1ccccc1)c1cc2c(ccc3ccccc32)o1 | i | -0.5
O=C(N/N=C/C=C\c1cccc([N+](=O)[O-])c1)c1cccnc1 | i | 0.84
Brc1ccc(CNc2nc3ccccc3n2CCN2CCCCC2)cc1 | i | -0.96
O=C(CN(CCc1ccccc1)C(=O)c1csnn1)NC1CCCC1 | i | -0.15
CNC(=S)N/N=C/c1ccccc1OCC(=O)O | i | 1.72
CC(=O)c1ccc2c3c(cccc13)CC2 | i | -0.01
O=C(CC1C(=O)NCCN1Cc1ccc(-c2ccccc2)cc1)NCCc1ccccn1 (configuration not stated) | i | 0.51
COc1ccccc1NC(=O)N1CCCC1C(=O)Nc1ccc2c(c1)OCCO2 (configuration not stated) | i | 1.66
NS(=O)(=O)c1ccc(CCNC(=O)Cc2cccs2)cc1 | i | -1.68
CN1CC(=O)N2Cc3[nH]c4ccccc4c3C[C@H]2C1=O | i | 0.03
Cc1ccc(C2C(C(=O)c3sc(C)nc3C)=C(O)C(=O)N2CCN(C)C)o1 (configuration not stated) | i | 0.21
CC(C)c1cc(CN2CCN(C3CCCC3)C(CCO)C2)[nH]n1 (configuration not stated) | i | -0.15
CCCCn1c(N)c(N(CC)C(=O)c2ccc(C#N)cc2)c(=O)[nH]c1=O | i | 1.44
O=C1CCC([N+](=O)[O-])C(c2ccccc2C(F)(F)F)N1 (configuration not stated) | i | 0.08
Next section:
SMILES | KCNQ2 inh | KCNQ2 inh baseline
Cc1ccc(OCC(=O)NNC(=O)[C@@H]2CCCC[C@@H]2C(=O)O)c(Br)c1 | i | -2.17
Cc1ccc(S(=O)(=O)N2CCC(C(=O)Nc3cc(C(F)(F)F)ccc3N3CCOCC3)CC2)cc1C | i | 1.01
CCN1CCSc2ccc(C(=O)NCc3ccc(OC(C)C)cc3)cc21 | i | 2.13
O=C(NCC1CCCO1)C1CC(=O)N(c2ccccc2)C1 (configuration not stated) | i | 0.22
O=C(NC1CCCCC1)c1ccc2c(c1)OCO2 | i | -0.06
CCN1C(=O)[C@H]2[C@@H](c3ccc(Cl)cc3)N3C(=O)CN(CC4CC4)C(=O)[C@@]3(C)[C@H]2C1=O | i | 0.13
COCc1cc(=O)n2[nH]cc(-c3ccccc3)c2n1 | i | 0.15
O=C(Nc1nnc(CCc2ccccc2)s1)c1ccccc1F | i | -0.25
O=C(CN1CCN(c2ccccc2)CC1)Nc1ccc(OCc2ccccc2)cc1 | i | -2.35
COc1ccc(OC)c(NC(=O)CCCN2C(=O)C3C4C=CC(C4)C3C2=O)c1 (configuration not stated) | i | 0.66
O=C(O)CC12CC3CC(C1)CC(n1ncc(NCC4CCCO4)c(Cl)c1=O)(C3)C2 (configuration not stated) | i | 1.05
CC(C)[C@H](NC(=O)Nc1ccc(Oc2ccccc2)cc1)C(=O)O | i | -0.03
O=C(c1ccccc1)N1CCN(Cc2ccccc2C(F)(F)F)CC1 | i | 0.44
CC(C)C(C)(C#N)NC(=O)CSc1nnc(-c2ccncc2)n1Cc1ccccc1 (configuration not stated) | i | -0.28
Cc1ccccc1NC(=S)C1=C(O)c2sccc2N(C)S1(=O)=O | i | -0.17
COc1ccc(CC(=O)Nc2ccc(-c3noc(COc4ccccc4C)n3)cc2)cc1 | i | 0.09
COCCNCC#CCOc1ccc(OC)cc1 | i | -1.97
O=C(NC(=S)Nc1ccccc1N1CCOCC1)c1ccc([N+](=O)[O-])cc1 | i | -0.16
CCCN(CCC)c1nc2ccccc2n2c(C)nnc12 | i | 0.62
Cc1ccc(-c2nn(-c3ccc(F)cc3)cc2C(=O)NC2CCC(O)CC2)cc1 (configuration not stated) | i | -0.1
CC(=O)c1c(C)[nH]c(C(=O)N2CCN(c3ncccn3)CC2)c1C | i | 0.09
CCN1CCN(C(C)C(=O)NC2CCCCC2)CC1 (configuration not stated) | i | 1.64
Cc1c(NC(=S)NC(=O)c2cccc(Cl)c2)c(=O)n(-c2ccccc2)n1C | i | 0.04
O=C(Oc1cccc(C(=O)N2CCOCC2)c1)c1ccc(Br)cc1 | i | 1.44
Cc1onc(-c2c(Cl)cccc2Cl)c1COC(=O)c1ccc(Cl)cc1 | i | -1.41

The list goes on; the last 5 above are carried over.
SMILES | KCNQ2 inh | KCNQ2 inh baseline
CC(=O)c1c(C)[nH]c(C(=O)N2CCN(c3ncccn3)CC2)c1C | i | 0.09
CCN1CCN(C(C)C(=O)NC2CCCCC2)CC1 (configuration not stated) | i | 1.64
Cc1c(NC(=S)NC(=O)c2cccc(Cl)c2)c(=O)n(-c2ccccc2)n1C | i | 0.04
O=C(Oc1cccc(C(=O)N2CCOCC2)c1)c1ccc(Br)cc1 | i | 1.44
Cc1onc(-c2c(Cl)cccc2Cl)c1COC(=O)c1ccc(Cl)cc1 | i | -1.41
O=C(COc1ccc2c(c1)CCC2)N1CCN(c2ccccc2F)CC1 | i | 0.46
Cn1nc(C(F)(F)F)c(-c2ccc(Br)cc2)c1NC(=O)Nc1ccc(F)cc1F | i | -1.11
COC(=O)c1cc2c(ccn2-c2ccc(F)cc2)n1CC(=O)C(C)(C)C | i | 0.1
O=C(c1ccco1)N1CCN(C(=O)c2cnn(-c3cccc(F)c3)c2C2CCNCC2)CC1 | i | 0.12
CCN(C(=O)Cn1c(=O)n(-c2cc(OC)c(OC)c(OC)c2)c(=O)c2ccccc21)c1cccc(C)c1 | i | -1.3
O=S(=O)(c1cccc(COc2c(Cl)cccc2Cl)c1)N1CCOCC1 | i | 1.41
NC(=O)c1ccc(=O)n(Cc2ccc(Cl)cc2Cl)c1 | i | -1.55
COc1cccc(C2(O)C(=O)Nc3ccccc32)c1 (configuration not stated) | i | -1.61
O=C(COC(=O)c1ncc(Cl)c(Cl)c1Cl)NC(=O)c1ccccc1 | i | -1.75
COC(=O)[C@H](CC(C)C)NC(=O)N1CCC(C)CC1 | i | 0.02
COc1ccc2occ(C(=O)c3coc4ccc(O)c(CN(C)C)c34)c2c1 | i | -1.65
COC(=O)c1ccc(N2CCN(c3ccccc3)CC2)c(N)c1 | i | 0.16
CC(C)n1cnc2c(oc3ccccc32)c1=O | i | -1.04
Cc1ccccc1CSc1nsc(N)n1 | i | -3.8
N#Cc1ccccc1Sc1ccccc1C(=O)OCc1nnc(-c2ccccc2)o1 | i | -0.92
COc1ccc(C(=O)N2CCN(c3ccc(NC(=O)c4cccnc4)cc3)CC2)cc1 | i | 0.75
CCn1c(SCc2ccc(Cl)c(Cl)c2)nnc1C(C)NC(=O)c1ccc(OC)cc1 (configuration not stated) | i | -0.04
COc1cccc(NC(=O)C(=O)NCCc2ccc(F)cc2)c1 | i | -0.6

An excerpt, so the mix of outcomes need not match the whole.
